Compound activity (PubChem)
MT1-MMP act inh = blocks activation of human MT1-MMP; AID 651647; GFP/RFP ratio change, % at 20 µM; 360,000 tested, 0.061% active; HT1080 RFP-PRO-GFP cells, GFP/RFP ratio fluorescence, overnight; percent of plate control window, DMSO zero;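 active = GFP/RFP ratio change of at least 30% with cell ATP level not reduced by more than half and red fluorescence within 50% of control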; note: strong numbers were not always called active
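Test system: HT1080 RFP-PRO-GFP cells; Benchmarks: DMSO and RFP-L50D-GFP cell wells; Timing: cells overnight before dosing, compound overnight, 37 °C, 5% CO2; Compound: one 20 µM compound dose with 1% DMSO; Read-out: GFP/RFP fluorescence ratio.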
UUG fidelity = alters start codon recognition fidelity in yeast | S. cerevisiae UUG-firefly luciferase reporter, luminescence/redox ratio | activity score, % at 18.7 µM | 350,000 tested, 0.13% active;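 active = replicate mean at a twofold rise or more, about +100% in these data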;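 note: firefly luciferase made from a UUG start codon reports start codon fidelity; reporter light over untreated wells divided by growth signal over untreated wells; some hits fall short of that in this replicate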
Rce1 inhib = yeast Ras-converting enzyme inhibition; yeast membranes, quenched prenylated peptide cleavage fluorescence; calls only; 290,000 tested, 0.27% active; Q03530;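 active = fall in fluorescence gain of 50% or more versus controls, with final raw signal at or below 3038400; inconclusive = same 50% fall but final raw signal above 3038400; inactive = fall in fluorescence gain under 50%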;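 note: plate controls were neutral control wells for no effect and wells lacking membranes for full effect; tested at 10 µM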
PABP FP inh = blocks human PABP binding to poly(A) RNA; P11940; fluorescence polarization; inhibition, % at 35 µM; 290,000 tested, 1% active; AID 2014;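 active = 50% or more with normal probe brightness, or confirmed in later tests; inconclusive = above 50% with abnormal brightness, or retests that disagree; inactive = below 50% or failed in later tests; about a fifth of its hits are not listed in these tables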;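 note: calls also rest on retests at 20 µM and on dose response follow-up; controls were probe without protein and protein plus probe with vehicle; some compounds called inactive have numbers as strong as hits; many hits fall short of the cut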
Target sequence (P11940 whole entry, looked up): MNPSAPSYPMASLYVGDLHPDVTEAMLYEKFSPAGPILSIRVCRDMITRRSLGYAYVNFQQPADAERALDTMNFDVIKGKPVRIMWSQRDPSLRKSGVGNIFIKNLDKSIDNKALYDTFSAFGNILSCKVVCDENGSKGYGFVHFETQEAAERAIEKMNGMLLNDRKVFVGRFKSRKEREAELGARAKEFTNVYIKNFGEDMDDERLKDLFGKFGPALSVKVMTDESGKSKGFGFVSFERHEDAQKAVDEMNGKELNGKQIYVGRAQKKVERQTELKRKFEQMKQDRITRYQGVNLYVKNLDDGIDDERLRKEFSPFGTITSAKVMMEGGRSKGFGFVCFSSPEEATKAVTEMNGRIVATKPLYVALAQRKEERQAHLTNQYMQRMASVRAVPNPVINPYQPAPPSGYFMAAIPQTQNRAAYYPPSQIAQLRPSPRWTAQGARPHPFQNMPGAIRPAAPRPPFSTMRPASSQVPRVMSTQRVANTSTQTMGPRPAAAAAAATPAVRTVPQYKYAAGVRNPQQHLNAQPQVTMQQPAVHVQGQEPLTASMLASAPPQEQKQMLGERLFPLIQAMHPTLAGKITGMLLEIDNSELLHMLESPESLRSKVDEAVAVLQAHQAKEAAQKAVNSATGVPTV
HIV Env fusion = inhibitors of HIV Env-mediated cell fusion. HeLa-JRFL Env/CEM21 cell fusion, luciferase. inhibition, % at 12.3 µM. 360,000 tested, 1.1% active. AID 651610;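 active = mean replicate inhibition score of at least 50 and every replicate individually at or above 50; inconclusive = only one of the two criteria met; inactive = mean below 50 and not all replicates reaching 50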;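 note: 0% = plate neutral controls and 100% = maraviroc near 300 nM; one replicate is shown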
eIF4H inh = inhibitors of RNA binding by human eIF4H; eIF4H fluorescence polarization binding assay; Q15056; AID 2012; 290,000 tested, 0.94% active; inhibition, % at 35 µM;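 active = 50% or more with normal probe brightness, or confirmed in later tests; inconclusive = above 50% with abnormal brightness, or retests that disagree; inactive = below 50% or failed in later tests; about a fifth of its hits are not listed in these tables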;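 note: calls also rest on retests at 20 µM and on dose response follow-up; 0% = protein and probe with vehicle and 100% = probe without protein; strong numbers were not always called active; many hits fall short of the cut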
CSC inhib = cancer stem cell inhibition. 300,000 tested, 1.1% active. inhibition, % at 7.5 µM. cancer stem cell-like cells viability, luminescence;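 active = mean at 75% or more and at least half the replicates too; inconclusive = mean and replicates disagree; tested in HMLE shEcad cells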;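 note: 0% = median of negative and 100% = median of positive control wells; the first replicate is given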
eIF4H inh retest = recorded beside eIF4H inh, whose call it bears; inhibition, %; compound at 20 µM; confirmation average;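 mean of two retest wells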
PABP FP inh retest = further read-out of PABP FP inh, marked with its call; inhibition, %; compound at 20 µM; confirmation repeats;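 mean of two retest wells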
MT1-MMP act inh RFP = further read-out of MT1-MMP act inh, marked with its call; RFP signal change, %; measured here: RFP expression control read;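 0 = vehicle wells; hits needed this value within 50% of zero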
* hit, by the source's call; i = inactive; ? = inconclusive; . = not tested or not shown; + = active, no number.

SMILES	MT1-MMP act inh	MT1-MMP act inh RFP	UUG fidelity	Rce1 inhib	PABP FP inh	HIV Env fusion	eIF4H inh	CSC inhib	others
CCOCCCNC(=O)CN1CCN(c2ccc(F)cc2)CC1	3.3	3.9	-2.7	.	36.3	.	1.4	-19.0
CCC(C)C(=O)Nc1nnc(SCC(=O)NC2CCCCC2)s1 (stereo unspecified)	4.5	-0.9	-25.3	i	-5.8	1.0	-10.9	-17.9
O=C(Cn1c2c(c(=O)n3ncnc13)CCC2)N/N=C/c1cccs1	-4.7	-4.3	-7.2	i	-1.5	6.6	-3.1	-5.2
O=C(CN1CCN(S(=O)(=O)N2CCCCC2)CC1)Nc1cc(Cl)ccc1Cl	-2.3	-5.2	-14.9	i	-7.6	-6.1	-14.0	5.1
CCCNC(=O)C1(C)CCN(C(=O)C2(c3ccc(Cl)cc3)CCCC2)C1 (stereo unspecified)	-1.9	1.0	0.6	.	.	16.9	.	.
CCc1ccc(/C=C2/C(=O)N(CC)C(=S)N2C)s1	-6.6	-8.3	.	i	-2.7	i	6.0	-6.6
COc1ccc(-c2nc3ccc(Br)cn3c2Cc2ccccc2)cc1OC	-0.3	-1.8	0.4	.	.	-9.1	.	.
CCN(c1ccccc1)S(=O)(=O)c1ccc(Cl)nc1	0.8	-2.6	.	i	9.1	3.3	-0.3	-14.3
O=C1c2ccc([N+](=O)[O-])cc2C(=O)N1c1ccc([N+](=O)[O-])cn1	2.4	-0.8	.	i	.	9.3	.	6.8
O=C(c1c(F)cccc1F)N1CCN(c2ncc(Br)cn2)CC1	0.5	-2.3	-5.2	i	0.7	3.1	2.4	4.5
COC(=O)c1ccc(CSc2nc3c(cnn3-c3ccccc3)c(=O)[nH]2)o1	-5.5	-3.3	-9.1	.	18.1	.	-3.2	4.6
C/C(=N\NC(=O)c1ccccc1)c1ccccc1F	3.8	-1.0	.	i	?	-5.9	-5.5	0.2
CC(C)(C)OC(=O)n1cc(/C=N/NC(=O)c2ccco2)c2ccccc21	1.2	3.6	-5.4	i	6.0	-39.1	-7.7	-11.8
CN(Cc1nc(-c2ccccn2)no1)S(=O)(=O)c1ccc(Br)cc1	-1.5	3.1	-23.6	i	1.9	.	-5.3	-1.8
C=CCOc1c(Br)cc(/C=N\n2nnnc2N)cc1OC	5.1	-3.6	-21.4	i	96.8	18.1	-5.9	4.3	eIF4H inh retest=-7.5;PABP FP inh retest=0.5
CN1CCN(C2CN(C3CCCCC3)S(=O)(=O)C2)CC1 (stereo unspecified)	3.7	2.4	-16.2	.	.	-65.4	.	.
CCOc1ccccc1C(=O)Nc1cccc2ccccc12	-4.8	-5.3	3.4	i	-5.4	-5.3	-7.6	21.0
COc1ccc(C(=O)N2CCC2(C)C(=O)NC(C)C)cc1 (stereo unspecified)	-2.5	2.1	-6.7	.	.	-8.1	.	.
[O-][n+]1onc2c1C(N1CCOCC1)CCC2N1CCOCC1 (stereo unspecified)	1.5	0.5	-10.1	i	-2.5	.	1.4	-18.4
CN(C)CCNC(=O)COc1ccc(C23CC4CC(CC(C4)C2)C3)cc1	6.1	-2.8	.	i	-13.6	7.3	-3.9	82.1*

Three entries already listed, arranged by formula weight, largest number first.
SMILES	MT1-MMP act inh	MT1-MMP act inh RFP	UUG fidelity	Rce1 inhib	PABP FP inh	HIV Env fusion	eIF4H inh	CSC inhib	others
CN(Cc1nc(-c2ccccn2)no1)S(=O)(=O)c1ccc(Br)cc1	-1.5	3.1	-23.6	i	1.9	.	-5.3	-1.8
[O-][n+]1onc2c1C(N1CCOCC1)CCC2N1CCOCC1 (stereo unspecified)	1.5	0.5	-10.1	i	-2.5	.	1.4	-18.4
CN1CCN(C2CN(C3CCCCC3)S(=O)(=O)C2)CC1 (stereo unspecified)	3.7	2.4	-16.2	.	.	-65.4	.	.

(further entries)
SMILES	MT1-MMP act inh	MT1-MMP act inh RFP	UUG fidelity	Rce1 inhib	PABP FP inh	HIV Env fusion	eIF4H inh	CSC inhib	others
CCN(CC)C(=O)c1nc[nH]c1C(=O)N(C)Cc1ccccc1	0.1	-0.1	-2.0	.	.	6.8	.	-14.8
COc1cccc(CN2CCNC(=O)C2CC(=O)N(C)CCc2ccccn2)c1 (stereo unspecified)	4.1	0.3	.	i	12.6	-9.6	5.6	4.2
CCOc1ccccc1-c1nnc(SCC(=O)Nc2ccccc2)o1	-0.4	-1.5	-30.3	i	-8.9	.	-1.5	.
CCN(C(=O)COC(=O)CCS(=O)(=O)c1ccc(C)cc1)C1CCS(=O)(=O)C1 (stereo unspecified)	0.4	4.1	-10.2	i	-6.6	-11.0	-0.6	5.7
Cc1cc2c(cc(C(=O)NCCCN3CCOCC3)n2Cc2ccc(Cl)cc2)o1	-4.6	-2.1	-10.0	i	60.3	-46.6	1.2	-9.3	eIF4H inh retest=-1.9;PABP FP inh retest=0.8
CC(OC(=O)CCCOc1ccccc1)C(=O)NC(N)=O (stereo unspecified)	5.0	7.0	-6.3	i	-1.0	35.2	-3.6	-12.0
CCC(c1nnnn1CCOC)N1CCN(c2cccc(C(F)(F)F)c2)CC1 (stereo unspecified)	5.4	0.2	4.7	i	29.9	.	7.3	1.4
COc1cccc(CNC(=O)Cn2ncn3cccc3c2=O)c1OC	-4.1	0.8	-8.4	i	-3.6	6.8	-21.0	-5.9
O=C(CSc1nnc(COc2ccccc2)o1)Nc1nccs1	-0.9	5.1	-24.1	i	13.8	-6.2	-0.9	-5.8
O=CN(/C=C1\Sc2ccccc2C1=O)Cc1ccccc1	1.3	8.0	-39.0	i	-2.3	-40.4	-7.1	4.5
COc1ccc(C)cc1NC(=O)C1CCN(S(=O)(=O)c2cccc3cccnc23)CC1	-4.7	-0.4	5.8	i	12.2	-14.3	3.9	.
COCCn1c(SCC#N)nnc1-c1ccccc1O	0.4	2.9	.	i	7.5	-7.1	2.1	-9.8
Cn1cc(SCC(=O)N2CCCc3ccccc32)c2ccccc21	-4.3	-2.4	-1.6	i	5.3	17.3	-6.8	-10.6
CCN1C(=O)C(=O)N(CC(=O)c2cc(C)n(C3CC3)c2C)C1=O	-1.7	-3.6	-10.3	.	.	.	.	-1.6
COCc1c(C(=O)N/N=C/C2CC=CCC2)nnn1-c1nonc1N (stereo unspecified)	1.9	1.4	-4.8	+	3.0	5.3	-1.5	-5.6
COc1ccc(CCNC(=O)c2ccc(-c3ccc([N+](=O)[O-])cc3Cl)o2)cc1	-2.0	5.0	-14.5	i	-2.3	.	-3.6	31.0
Cc1cc(N2CCN(c3ccccc3)CC2)nc(-n2nc(C)cc2C)n1	7.8	0.9	-38.2	i	-9.7	-41.6	-15.0	-18.9
CCN(CC)C(=O)c1ccc(C(=O)c2c(C)cc(C)cc2C)cc1	-5.7	-12.0	10.2	i	-2.4	.	-7.2	0.3
COc1ccc(S(=O)(=O)NC(CC(=O)N2CCc3ccccc32)c2ccco2)cc1 (stereo unspecified)	3.6	3.3	-1.4	i	8.9	.	-4.0	-9.5
COc1ccc(OC)c(-n2c(-c3cccc(C)c3)n[nH]c2=S)c1	1.0	1.8	.	i	-9.2	-8.0	-14.1	-7.2
Cc1cccn2cc(CNC(=O)CC3CCCC3)nc12	0.3	2.4	-0.9	i	-2.1	.	0.6	.
CC(C)C1=CC(=Nc2ccc(S(N)(=O)=O)cc2)C=C(C(C)C)C1=O	-2.8	2.8	1.9	i	-18.4	3.5	-5.6	-18.9
COc1ccc(NC(=O)Nc2cccs2)cc1OC	-4.8	0.3	-12.4	i	12.6	.	0.2	3.5
CC(C)CCn1c(=O)c2ccccc2n2c(CCl)nnc12	1.6	-3.1	-8.1	i	4.5	19.9	-6.3	-2.7
N#Cc1c(N2CCN(C(=O)c3ccco3)CC2)nc(-c2ccccc2)c2c1CCCC2	-16.8	-15.9	-8.0	i	-8.9	.	1.4	42.7
CCNC(=S)Nc1cccc(S(=O)(=O)NC2=NCCC2)c1	3.3	5.8	.	i	-2.7	3.2	-14.8	8.0
C/C=C/Cn1c(SCc2ccccc2)nc2c1c(=O)[nH]c(=O)n2C	0.8	0.0	10.0	i	-4.0	.	-17.0	-10.3
CCOC(=O)C(Oc1ccc(=O)[nH]n1)C(C)=O (stereo unspecified)	1.2	-6.2	-2.3	i	-6.9	.	-8.0	-8.1
COC1=Nc2ccccc2/C=C\c2ccccc21	-2.6	-1.9	-7.5	.	.	-1.5	.	.
CN(C)c1nc(N)c([N+](=O)[O-])c(NCc2ccccc2)n1	8.6	14.3	-10.9	i	3.5	.	-7.4	15.8

For reference, part of the list above:
SMILES	MT1-MMP act inh	MT1-MMP act inh RFP	UUG fidelity	Rce1 inhib	PABP FP inh	HIV Env fusion	eIF4H inh	CSC inhib	others
COC1=Nc2ccccc2/C=C\c2ccccc21	-2.6	-1.9	-7.5	.	.	-1.5	.	.
CN(C)c1nc(N)c([N+](=O)[O-])c(NCc2ccccc2)n1	8.6	14.3	-10.9	i	3.5	.	-7.4	15.8

Carrying on.
SMILES	MT1-MMP act inh	MT1-MMP act inh RFP	UUG fidelity	Rce1 inhib	PABP FP inh	HIV Env fusion	eIF4H inh	CSC inhib	others
Cc1ccc(C)c(N2CCN(C(=O)c3cccn4c(=O)c5sccc5nc34)CC2)c1	-4.8	-8.7	.	i	-3.3	-6.4	-12.3	25.4
O=C(O)CCC(=O)Nc1ccc2c(c1)oc1ccccc12	1.7	1.8	-12.4	i	-2.5	-45.6	-1.5	6.5
COc1ccc([N+](=O)[O-])cc1NC(=O)C(C)OC(=O)C1CC(=O)N(Cc2ccco2)C1 (stereo unspecified)	-3.5	-1.4	-13.6	i	.	12.7	.	-13.0
CCn1cc(/C=C/C(=O)Nc2c(C)nn(Cc3ccccc3C)c2C)cn1	-3.2	0.2	.	i	1.4	4.3	-5.6	1.6
CC1(Cc2cn(CCC#N)c3ccccc23)OCCO1	3.2	-0.1	-0.5	i	0.4	.	-6.2	-12.0
COc1ccc(C2=NO[C@@H]3C(=O)N(Cc4ccccc4)C(=O)[C@H]23)cc1OC	5.9	4.9	-9.7	i	8.1	25.3	-2.1	-3.6
O=C(Nc1cnn(Cc2ccc(F)cc2)c1)c1noc2c1CCCC2	2.0	-3.1	.	i	-3.6	-19.8	-3.7	68.2
S=C1NCN(Cc2cccnc2)CN1c1cccc2ccccc12	-0.1	4.4	-25.8	i	7.7	-8.2	-8.2	-2.9
CCN(CC)S(=O)(=O)c1cccc(NC(=O)COC(=O)C2COc3ccccc3O2)c1 (stereo unspecified)	0.7	5.3	-8.4	i	0.7	.	-7.4	-3.0
CCCC1=C(C(=O)OCC)C(c2ccc(O)cc2)n2ncnc2N1 (stereo unspecified)	3.2	3.6	-19.0	i	-6.7	.	-2.1	-0.3
CC(=O)c1ccc(NC(=O)CCNS(=O)(=O)c2ccccc2F)cc1	-2.0	0.5	-22.7	i	2.5	1.6	8.5	1.6
COCCCNC(=O)CCn1c(=O)c2ccccc2n(CC(=O)Nc2ccc(C)cc2C)c1=O	3.5	3.7	-0.3	i	-3.4	.	-10.7	-7.6
Cc1ccc[n+](CC(=O)c2ccc(Br)cc2)c1	-1.4	1.3	-4.5	i	-4.1	7.9	-6.0	-8.0
CCc1ccc(-c2csc3ncn(CC(=O)N4CCOCC4)c(=O)c23)cc1	0.1	3.2	-2.9	i	-10.2	-32.2	5.6	7.5
